Screening data from PubChem.
Polio RdRp inh – inhibitors of poliovirus RNA polymerase binding and polymerization; P03300; AID 588519; hit rate 0.66% among 150,000; % elongation, % (compound at 16.7 µg/mL); poliovirus polymerase elongation, fluorescence polarization; hits give low values; in the data active = % elongation below about 90%; also: some results filed as inactive read as strong as hits
Target sequence (P03300 1749-2209 limits assumed): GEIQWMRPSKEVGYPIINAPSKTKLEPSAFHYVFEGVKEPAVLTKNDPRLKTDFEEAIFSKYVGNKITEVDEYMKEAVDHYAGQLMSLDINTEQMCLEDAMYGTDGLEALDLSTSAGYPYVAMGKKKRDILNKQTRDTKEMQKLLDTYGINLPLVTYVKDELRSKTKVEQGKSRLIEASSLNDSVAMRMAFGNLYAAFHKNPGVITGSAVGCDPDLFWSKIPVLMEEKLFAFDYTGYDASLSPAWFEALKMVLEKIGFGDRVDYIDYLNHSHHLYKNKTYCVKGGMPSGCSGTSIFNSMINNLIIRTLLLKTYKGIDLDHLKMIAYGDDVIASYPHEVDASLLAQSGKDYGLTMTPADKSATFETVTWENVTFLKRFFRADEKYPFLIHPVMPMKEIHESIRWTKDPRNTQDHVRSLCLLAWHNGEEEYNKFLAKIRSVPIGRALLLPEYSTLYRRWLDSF
Polio RdRp inh intensity – second read-out of Polio RdRp inh, no call of its own (marks repeat the call); % elongation; measured here: total intensity read-out; formula for this scale not given here;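 total fluorescence in place of polarization; lower means less elongation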
* marks the source's active call; other numbers are inactive results. Only part of the results is shown; rates above refer to the full screens.

Values run as follows: Polio RdRp inh | Polio RdRp inh intensity
- COc1cccc(NC(=O)C2CCN(c3nc4ccccc4nc3C(F)(F)F)CC2)c1
  113 | 114
- CC(C)CN(c1ccccc1)S(=O)(=O)c1nnc(NC(=O)C2CCCCC2)s1
  104 | 107
- COc1ccc(-c2nc(C)c(CCNC(=O)c3ccc(C(F)(F)F)cc3)s2)cc1OC
  115 | 116
- COc1ccc(CNC(=O)CSc2nc3ccccc3nc2Cc2ccccc2)cc1
  102 | 108
- COc1ccc(-c2nc(CS(=O)(=O)CC(=O)NCCc3ccc(C)cc3)c(C)o2)cc1
  104 | 103
- COc1ccccc1NC(=O)CSc1nc2ccccc2c2nc(-c3ccccc3)nn12
  107 | 104
- CCN(C(=O)CSc1nc(-c2ccc(C(C)C)cc2)no1)c1ccccc1
  100 | 100
- Cc1ccc(-n2ncc(C(=O)N3CCC(c4ccccc4)C3)c2C2CCN(C(=O)OC(C)(C)C)CC2)cc1 (stereo not given)
  102 | 102
- O=C(CSc1nc(-c2cccs2)cc(C(F)(F)F)n1)Nc1ccccc1Cl
  103 | 100
- O=C(NCCCN1CCN(c2ccccc2F)CC1)c1ccc2nc(CCc3ccccc3)oc2c1
  107 | 106

Reformatted: 2 of the compounds above
COc1ccc(CNC(=O)CSc2nc3ccccc3nc2Cc2ccccc2)cc1
  Polio RdRp inh: 102
  Polio RdRp inh intensity: 108
COc1ccc(-c2nc(CS(=O)(=O)CC(=O)NCCc3ccc(C)cc3)c(C)o2)cc1
  Polio RdRp inh: 104
  Polio RdRp inh intensity: 103

Next part
Values run as follows: Polio RdRp inh | Polio RdRp inh intensity
- CCOC(=O)N1CCC(NC(=O)c2cnn(-c3cccc(C)c3)c2-n2cccc2)CC1
  110 | 114
- CC(C)CC(=O)NC1CC(=O)N(c2ccc3c(c2)OCCO3)C1 (stereo not given)
  106 | 102
- COc1ccc(CNC(=O)CSc2ncc3c(n2)-c2ccc(Cl)cc2N(Cc2ccc(F)cc2)S3(=O)=O)cc1OC
  106 | 89
- O=C(CSc1ncc2c(n1)-c1ccc(Cl)cc1N(Cc1ccccc1)S2(=O)=O)Nc1ccc(F)c(F)c1
  111 | 105
- CCOc1ccc(NC(=O)CSc2ncc3c(n2)-c2cc(Cl)ccc2N(C)S3(=O)=O)cc1
  102 | 110
- CCc1ccc(-c2[nH]c3c(c2-c2sc(C)c(C(=O)OC)c2O)c(=O)n(C)c(=O)n3C)cc1
  113 | 105
- Cc1ccccc1CNC(=O)CCCn1nc(C)c2sc3ccccc3c2c1=O
  112 | 113
- COc1ccc(CNC(=O)Cn2ncc3c(=O)oc4ccc(C)cc4c32)c(OC)c1
  102 | 104
- CCc1ccc2c(c1)NC(c1ccc(C)cc1)=NC(c1cccs1)=N2
  105 | 111
- CC1=C(C(=O)N2CCN(c3cccc(C)c3C)CC2)C2(CCCCC2)OC1=O
  108 | 106
- CCc1ccc(CN(Cc2ccco2)c2cnc(S(C)(=O)=O)nc2C(=O)Nc2cccc(C)c2)cc1
  110 | 107
- COc1ccc(-n2nnc(-c3nsc(NC(=O)c4cccs4)n3)c2C)cc1OC
  104 | 105
- Cc1cc(C)c2oc(C(=O)Nc3ccc(S(=O)(=O)Nc4nccc(C)n4)cc3)cc(=O)c2c1
  107 | 115
- CCCSc1ncc(Cl)c(C(=O)NCc2ccc(OC)cc2)n1
  106 | 110
- COc1ccc(N(CC(=O)NC(C)c2ccccc2)S(=O)(=O)c2c(C)noc2C)cc1 (stereo not given)
  110 | 111
- Cc1ccc(-n2ncc(C(=O)NCCN3CCc4ccccc4C3)c2C2CCN(C(=O)OC(C)(C)C)CC2)cc1
  110 | 111
- Cc1ccc(S(=O)(=O)Nc2ccc3c(c2)CCCN3C(=O)c2cccs2)cc1
  107 | 112
- O=C1CN(C(=O)c2ccc(S(=O)(=O)N3CCCC3)cc2)C(c2ccccc2)c2cc(F)ccc2N1 (stereo not given)
  109 | 112
- COc1cc(NC(=O)c2cc(-c3ccccc3O)no2)cc(OC)c1OC
  103 | 105
- Nc1ncc(S(=O)(=O)Nc2ccc(OC(F)(F)F)cc2)cn1
  111 | 114
- CCOC(=O)c1ccc(OCC2c3cc(OC)c(OC)cc3CCN2C(=O)Cc2ccc(F)cc2)cc1 (stereo not given)
  102 | 107
- Cc1cccc(Cn2c(SCc3ccc(C(=O)NCc4cccs4)cc3)nc3cccnc32)c1
  101 | 101
- COc1ccc(OC)c(CNC(=O)c2cccc(NC(=O)N3CCSc4ncccc43)c2)c1
  107 | 106
- Cc1ccc2c(c1)c1c(c(=O)n(-c3ccccc3)c(=O)n1CC(=O)N1CCCC1)n2C
  103 | 97
- Cc1ccc(C)c(N2CCN(c3nc4ccccc4c(=O)n3-c3ccccc3)CC2)c1
  103 | 108
- COC(=O)c1ccccc1NC(=O)c1cc(-c2ccccc2O)no1
  104 | 96
- COc1ccc(CNC(=O)CCCN2C(=O)c3cccnc3Oc3ccc(Cl)cc32)cc1
  108 | 107
- CCC(C)NC(=O)CSc1nc(-c2ccc(F)cc2)cc(C(F)(F)F)n1 (stereo not given)
  103 | 106
- COc1ccc2c(Sc3ccccc3)c(C(=O)NCc3ccc(OC(C)C)cc3)[nH]c2c1
  110 | 99
- CN(C)c1ccc(CNC(=O)c2cc3cc(S(=O)(=O)N4CCCCC4)ccc3n2C)cc1
  116 | 107
- COc1ccc(N2CCN(Cc3nc4c(c(=O)[nH]c(=O)n4C)n3Cc3ccc(Cl)cc3)CC2)cc1
  99 | 98
- Cc1cc2c(cc3c(SCc4ccccc4Cl)nnc(C)n32)o1
  107 | 100
- Cc1ccc(Cn2c(=O)c3ccccc3n3c(-c4cccc(O)c4)nnc23)cc1
  103 | 105
- CCc1cccc(NC(=O)c2oc3ccc4c(c3c2C)C(=O)CC(C)(C)O4)c1
  113 | 112
- Cc1ccn2c(c1)nc(=O)c1cc(S(=O)(=O)N3CCCCC3)ccc12
  93 | 119
- O=S(=O)(NCC(c1ccco1)S(=O)(=O)c1cccs1)c1ccc(F)c(C(F)(F)F)c1 (stereo not given)
  106 | 110
- CCOc1ccc2nc(SCC(=O)Nc3ccc(F)cc3)nc(-c3ccccc3)c2c1
  108 | 99
- CCOC(=O)c1cccc(NC(=O)CC2C(=O)N(c3ccc(F)cc3)C(=O)N2Cc2cccc(OC)c2)c1 (stereo not given)
  107 | 107
- COc1ccc(-c2cc(=O)oc3c4c(ccc23)OCN(Cc2cccc(OC)c2)C4)cc1
  99 | 102
- CCOc1ccccc1CNC(=O)CC(C)n1ccc(C)n1 (stereo not given)
  104 | 102
- CCC(C)n1c(SCc2ccc(C(C)(C)C)cc2)nc2ccsc2c1=O (stereo not given)
  101 | 108
- CCCCn1c(Oc2cccc(C(=O)OC)c2)nc2c1c(=O)n(C)c(=O)n2C
  106 | 95
- CCCCOC(=O)c1ccc(OC(=O)c2sc3ncn(Cc4cccc(F)c4)c(=O)c3c2C)cc1
  98 | 95
- CCc1nc2nc(C)cc(Nc3ccc(OC)cc3)n2n1
  102 | 104
- COc1cc(Br)cc2cc(S(=O)(=O)c3ccccc3)c(=O)oc12
  103 | 104
- Cc1ccc(Cl)cc1NC(=O)c1cnc(N2CCCCC2)c2ccccc12
  107 | 108
- CCOc1cc(CNC(=O)Cn2ncn3c(cc4cc(F)ccc43)c2=O)cc(OCC)c1OCC
  109 | 109
- Cc1ccc(N2CC(C(=O)NCCS(=O)(=O)N3CCN(c4ccccc4)CC3)CC2=O)cc1C (stereo not given)
  109 | 106
- Cc1c(Cl)cccc1NC(=O)CN1C(=O)COc2ccc(S(=O)(=O)N3CCOCC3)cc21
  110 | 110
- CC(=O)c1ccc(NC(=O)Cn2c(-n3nc(C)cc3C)nc(C)cc2=O)cc1
  111 | 113

Among those listed so far, these have a furan ring, fused or not:
Values run as follows: Polio RdRp inh | Polio RdRp inh intensity
- CCc1ccc(CN(Cc2ccco2)c2cnc(S(C)(=O)=O)nc2C(=O)Nc2cccc(C)c2)cc1
  110 | 107
- Cc1cc2c(cc3c(SCc4ccccc4Cl)nnc(C)n32)o1
  107 | 100
- CCc1cccc(NC(=O)c2oc3ccc4c(c3c2C)C(=O)CC(C)(C)O4)c1
  113 | 112
- O=S(=O)(NCC(c1ccco1)S(=O)(=O)c1cccs1)c1ccc(F)c(C(F)(F)F)c1 (stereo not given)
  106 | 110

More results.
Values run as follows: Polio RdRp inh | Polio RdRp inh intensity
- CCC(C)NC(=O)Cn1c(-c2cccs2)cc2cc(Cl)ccc21 (stereo not given)
  112 | 113
- COc1cc(CNC(=O)C2CCCCN2S(=O)(=O)c2ccc(F)cc2)cc(OC)c1OC (stereo not given)
  104 | 108
- Cc1cc2c(cc3c(=O)n(CC(=O)NCc4ccccc4Br)ncn32)s1
  108 | 110
- Cc1cc(C)cc(Nc2sc(C(=O)c3ccccc3)c(N)c2S(=O)(=O)c2ccccc2)c1
  113 | 115
- CCn1cc2nc(SCC(=O)Nc3cccc(Cl)c3C)n(Cc3ccc(Cl)cc3)c(=O)c2n1
  106 | 112
- CCOc1ccc(C2c3c(-c4ccc(C)cc4)n[nH]c3C(=O)N2c2ccc(Cl)cc2)cc1 (stereo not given)
  111 | 107
- CC(=O)Nc1nonc1-c1nnc(SCc2ccccc2Cl)n1C
  104 | 101
- COc1ccc(C)cc1NC(=O)Cn1c(=O)oc2cc(S(=O)(=O)N3CCCCCC3)ccc21
  109 | 105
- CCCN(CCC)C(=O)C1CCCN(c2ncnc3c2nc2n3CCCCC2)C1 (stereo not given)
  102 | 107
- CCOc1ccc(N(CC(=O)Nc2cc(C)ccc2C)S(=O)(=O)c2c(C)[nH]c(=O)[nH]c2=O)cc1
  103 | 104
- Cc1ccc(S(=O)(=O)N2CCC(C(=O)Nc3ccc(Oc4ccccc4)cc3)CC2)cc1
  102 | 107
- Cc1ccc(NC(=O)Nc2ccc3nc(N4CCN(C)CC4)cc(C)c3c2)cc1C
  100 | 106
- COc1ccc(CN2COc3ccc4c(C)cc(=O)oc4c3C2)cc1
  105 | 112
- COc1ccccc1N1CCN(C(=O)CSc2n[nH]c(-c3ccccc3Cl)n2)CC1
  105 | 110
- CCN(CC)CCOC(=O)c1ccc(NC(=O)c2cc3cc(OC)ccc3oc2=O)cc1
  102 | 107
- Cc1ccc(NC(=O)CC2Sc3ccccc3NC2=O)c(C)c1 (stereo not given)
  107 | 106
- Cc1c(Cl)cccc1NC(=O)CN1C(=O)c2ccccc2Sc2ncccc21
  98 | 101
- CCOc1ccccc1NC(=O)Cn1c(=O)n(-c2ccc(C)c(C)c2)c(=O)c2oc3ccccc3c21
  109 | 112
- CC(=O)N1c2ccc(S(=O)(=O)NCC3CCC(C(=O)Nc4cc(C)cc(C)c4)CC3)cc2CC1C (stereo not given)
  125 | 108
- CCN(CC)CCOC(=O)c1ccc(NC(=O)c2cc3cccc(OC)c3oc2=O)cc1
  90* | 77*
- CCOc1ccc(/C=C/c2nc(C#N)c(NCCCN(C)C)o2)cc1
  108 | 105
- COc1ccccc1N1CCN(C(=O)CCn2cnc3onc(-c4ccc(F)cc4)c3c2=O)CC1
  102 | 106
- Cc1cccc(C)c1OCCn1c(C2CC(=O)N(Cc3ccc(F)cc3)C2)nc2ccccc21 (stereo not given)
  105 | 109
- CCCNC(=O)CCn1nc(-c2ccccc2)c2ccccc2c1=O
  106 | 109
- COc1ccc(-c2noc(-c3ccc(NC4CCCCC4)c([N+](=O)[O-])c3)n2)cc1OC
  111 | 118
- COc1ccccc1NC(=O)C1=C(C)Nc2nc3ccccc3n2C1c1ccccc1Cl (stereo not given)
  105 | 112
- CCOCCCNC(=O)c1ccc(-n2c(-c3ccccc3)cc3c2CCC(C)C3)cc1 (stereo not given)
  101 | 102
- O=C(c1ccc2c(c1)N(Cc1c(F)cccc1Cl)C(=O)c1ccccc1S2)N1CCC2(CC1)OCCO2
  112 | 112
- Cc1ccc(S(=O)(=O)c2cn(C)c3cc(N4CCCCCC4)c(F)cc3c2=O)cc1
  116 | 113
- CCC(C(=O)Nc1ccccc1OC)n1nc(C)c2sc3ccccc3c2c1=O (stereo not given)
  115 | 108
- O=C1Nc2c(c(=O)[nH]c(=O)n2-c2ccc(Cl)cc2)C1(NS(=O)(=O)c1ccccc1)C(F)(F)F (stereo not given)
  109 | 111
- Cc1ccc(CNC(=O)CN2Cc3ccccc3C2=O)cc1
  110 | 113
- COc1ccc(CCNC(=O)CCn2c(=O)c3cccn3c3cccnc32)cc1OC
  100 | 104
- O=C(c1ccccc1Cl)n1nc(-c2cccnc2)nc1NCc1ccc(F)cc1
  109 | 108
- CCOCCCNC(=O)c1c(NC(=O)c2cc(=O)c3ccccc3o2)sc2c1CCC2
  105 | 108
- COc1ccc(N2CCN(S(=O)(=O)c3c(C)nc4scc(C)n4c3=O)CC2)cc1
  101 | 101
- COc1ccc(NC(=O)CSc2nc3ccccc3n2CC(=O)N2CCCC(C)C2)cc1 (stereo not given)
  106 | 108
- CCn1c2ccc(F)cc2c2nnc(SCCN3CCCCC3)nc21
  101 | 98
- COc1ccc(OC)c(S(=O)(=O)Nc2ccc3[nH]c(=O)[nH]c3c2)c1
  108 | 109
- CCOC(=O)c1c(S(=O)(=O)N2CCCC(C(=O)N(C)Cc3ccccc3)C2)c(C)n(C)c1C (stereo not given)
  108 | 102
- Cc1cccc(S(=O)(=O)c2cn(Cc3ccccc3)c3cc(N4CCCCC4C)c(F)cc3c2=O)c1 (stereo not given)
  111 | 112
- O=C(CN1C(=O)CC(c2ccccc2)=Nc2ccccc21)Nc1ccc(Br)cc1
  116 | 113
- CC1=Nc2cc(C(=O)NCCc3ccc(Cl)cc3)ccc2Sc2ccc(C)cc21
  108 | 108
- Cc1c(CCC(=O)NCc2ccc(F)cc2)c(=O)oc2cc(O)ccc12
  119 | 120
- CCN(CC)CCCNC(=O)c1oc2c(c1C)-c1nn(Cc3ccc(Cl)cc3)cc1CC2
  106 | 111
- CN(C)S(=O)(=O)N(CC(=O)NCCSCc1ccccc1)c1ccccc1
  105 | 110
- COC(=O)c1cc(Cl)ccc1NC(=O)CSc1ncc(S(=O)(=O)c2ccc(Br)cc2)c(=O)[nH]1
  111 | 125
- Cc1nc2c(C(=O)NCc3ccccc3)cnn2c(C)c1Cc1ccc(F)cc1
  110 | 112
- COc1ccc(CCNC(=O)CN2C(=O)COc3ccc(S(=O)(=O)N4CCCCCC4)cc32)cc1OC
  108 | 110
